Screens as filed in PubChem BioAssay.
Ecoli rRNA inh: reduced GFP signal of wild-type E. coli, primary screen, bacterial rRNA inhibitor project, GFP/RFP fluorescence, OD600, single point; 350,000 compounds, 1.6% hits; E. coli WT GFP vs humanized-ribosome RFP mutants, 24 h; active compounds read low; DMSO median 0, no signal -100; GFP signal change (wild-type ribosome), % (concentration not given with the values);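 active = significant combined selectivity score with lowered wild-type GFP, culture density cut under 30%, mutant RFP and density less affected; inactive = any of these conditions unmet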; note: one replicate is shown; some compounds called inactive have numbers as strong as hits
HNF4A DNA FP: change in binding of human HNF4A to DNA, primary screen, biochemical, fluorescence polarization, FITC-DNA; Hepatocyte nuclear factor 4-alpha (Homo sapiens), P41235; 1 h; activity change, % at 10 µM; 360,000 compounds, 0.3% hits; in the data active = activity change above about 30%, passing the limit was not always enough;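 note: controls were the assay level and a saturating level of protein; the project sought stronger binding though the title names inhibitors; some compounds called inactive have numbers as strong as hits; positive values seem to mean higher polarization but the record does not say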
Target sequence (P41235 whole entry, looked up): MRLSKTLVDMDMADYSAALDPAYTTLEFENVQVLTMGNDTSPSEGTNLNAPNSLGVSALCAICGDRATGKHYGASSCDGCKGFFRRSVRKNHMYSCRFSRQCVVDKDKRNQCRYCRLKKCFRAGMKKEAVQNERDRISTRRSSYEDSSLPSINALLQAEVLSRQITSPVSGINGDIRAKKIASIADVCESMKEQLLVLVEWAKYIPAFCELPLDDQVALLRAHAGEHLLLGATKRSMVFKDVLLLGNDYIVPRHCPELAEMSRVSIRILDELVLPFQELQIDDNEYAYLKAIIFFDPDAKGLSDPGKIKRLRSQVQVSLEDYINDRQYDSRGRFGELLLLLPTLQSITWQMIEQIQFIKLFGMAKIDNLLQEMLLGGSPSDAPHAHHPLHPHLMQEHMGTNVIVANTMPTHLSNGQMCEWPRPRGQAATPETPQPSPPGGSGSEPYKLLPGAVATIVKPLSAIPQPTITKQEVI
UCH37 DUB inh: inhibitors of human UCH37 deubiquitinase, primary screen, biochemical, Ub-AMC cleavage, fluorescence; Ubiquitin carboxyl-terminal hydrolase isozyme L5 (Homo sapiens), Q9Y5K5; purified proteasome/UCH37; inhibition, % (concentration not given with the values); 330,000 compounds, 0.33% hits; AID 588478, 2011;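 active = mean of two replicates above 20%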;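 note: 0% = compound-free wells with enzyme and 100% = wells lacking proteasome; stock transfer was 100 nL into about 20 µL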
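Test system – human UCH37 enzyme supplied as purified proteasome complex · Incubation – 30 min preincubation with enzyme, 25 min cleavage at room temperature · Detection – AMC fluorescence from Ub-AMC cleavage, excitation 355 nm, emission 460 nm · Benchmarks – no-proteasome wells (full inhibition) and compound-free wells (no inhibition)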
E coli growth: E. coli growth inhibition, primary screen, OD600; OD600 absorbance (concentration not given with the values); 330,000 compounds, 0.21% hits; Escherichia coli growth, 23 h; active compounds read low;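 active = OD600 absorbance below the run mean of sample wells minus 3.6 SD, in any replicate, cut at about 0.56 in these data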;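 note: stock transfer was 300 nL into about 60 µL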
FGF22 binding: binders of human FGF22 protein, primary screen, FGF22 synaptogenesis inhibitor project, biophysical, thermal shift, single point | Fibroblast growth factor 22 (Homo sapiens), Q9HCT0 | recombinant FGF22 thermal shift, SYPRO orange fluorescence; percent of sucrose octasulfate shift, DMSO zero | calls only at 9.99 µM | 340,000 compounds, 1.5% hits | AID 651658, 2012;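 active = melting point raised past a set limit in the mean and every replicate; three in four hits are not shown here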
ALR inh: inhibitors of human ALR sulfhydryl oxidase, primary screen, biochemical, H2O2 detection, HRP-luminol luminescence, single point; FAD-linked sulfhydryl oxidase ALR (Homo sapiens), P55789; inhibition, % (concentration not given with the values); 290,000 compounds, 3.8% hits; purified ALR, DTT oxidation; AID 485317, 2010;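 active = mean and each replicate at 75% or more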;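 note: stock transfer was 7.5 nL into about 7.5 µL; 0% = neutral wells and 100% = wells with inactivated enzyme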
Target sequence (P55789 whole entry, looked up): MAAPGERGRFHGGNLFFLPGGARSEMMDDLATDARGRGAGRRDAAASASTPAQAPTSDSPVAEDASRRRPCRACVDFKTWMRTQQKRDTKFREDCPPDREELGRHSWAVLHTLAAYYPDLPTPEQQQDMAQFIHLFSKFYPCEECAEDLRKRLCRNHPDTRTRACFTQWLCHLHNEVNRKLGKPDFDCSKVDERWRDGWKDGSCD
B2AR ag: beta2AR agonists driving receptor internalization, primary screen, cell-based, FAP fluorogen, flow cytometry | Beta-2 adrenergic receptor (Homo sapiens), P07550 | Am2.2-beta2AR cells; reference of the scale not given here | response, % (no concentration beside the values) | 340,000 compounds, 0.43% hits;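 active = response above a set limit, near 3 SD of response in nonfluorescent compounds, cut at about 42% in these data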;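 note: stock transfer was 100 nL into about 11 µL; a reference agonist was the positive control; negative values mostly stem from fluorescent compounds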
Target sequence (P07550 whole entry, looked up): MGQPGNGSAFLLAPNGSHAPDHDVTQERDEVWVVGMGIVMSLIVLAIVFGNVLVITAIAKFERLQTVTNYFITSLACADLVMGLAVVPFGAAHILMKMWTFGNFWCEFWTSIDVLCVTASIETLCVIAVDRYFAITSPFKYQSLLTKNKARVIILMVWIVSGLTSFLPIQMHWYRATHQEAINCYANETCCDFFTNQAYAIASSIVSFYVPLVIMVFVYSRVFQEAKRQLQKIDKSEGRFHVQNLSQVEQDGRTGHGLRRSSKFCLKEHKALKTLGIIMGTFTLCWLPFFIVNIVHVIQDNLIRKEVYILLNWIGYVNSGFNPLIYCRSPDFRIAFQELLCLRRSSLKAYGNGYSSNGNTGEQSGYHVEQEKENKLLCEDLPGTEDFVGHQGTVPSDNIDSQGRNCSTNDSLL
Ecoli rRNA inh OD600: also measured in Ecoli rRNA inh; calls as there; OD600 change, %; measured here: OD600 growth;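 optical density of the mix in the first replicate; 0 = DMSO median and -100 = no signal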
Ecoli rRNA inh RFP: further read-out of Ecoli rRNA inh, marked with its call; RFP signal change, %; measured here: RFP humanized mutant strains;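 first replicate; 0 = DMSO median and -100 = no signal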
Starred values were filed as active, the others as inactive; i = inactive; x = not tested or not shown. Only part of the results is shown, so the mix of outcomes need not match the whole.

Below each SMILES: HNF4A DNA FP, Ecoli rRNA inh RFP, Ecoli rRNA inh OD600, FGF22 binding, Ecoli rRNA inh, E coli growth, B2AR ag, UCH37 DUB inh, ALR inh
> COc1ccccc1C(=O)NC(=O)COC(=O)c1cccc(NC(C)=O)c1
→ 0.5, 1.5, 5, i, 3, 0.69, 2, 4.9, 7
> Cn1c(COc2ccccc2)nnc1SCC(=O)NC1CCCC1
→ -0.7, -2.3, -3, i, 1, 0.72, -4, 1.8, -12
> COC(=O)NC1CCS(=O)(=O)C1 (stereo unspecified)
→ -5.5, x, x, x, x, 0.73, 0, 1.3, 1
> N#Cc1ccc(C(=O)N2CCC3CC2c2cc(N4CCCCC4)ccc23)cc1 (stereo unspecified)
→ -2.7, 2.6*, -18*, i, -33*, x, x, x, x
> S=C1NC2(CCCC2)Nc2ccccc21
→ 1.6, -4.0, 8, i, 15, 0.67, -7, 0.7, 48
> COc1ccc(-c2csc3nc(-c4ccccc4F)oc(=O)c23)cc1
→ 1.7, -0.8, 14, i, 0, 0.67, -7, -6.8, 7
> O=C(CSc1nc2ccccc2c(=O)n1-c1ccccc1)N1CCc2ccccc21
→ -1.8, x, x, x, x, 0.68, 11, 1.0, -6
> O=C(COC(=O)c1ccc(S(=O)(=O)N2CCCC2)cc1)Nc1cccnc1Cl
→ -1.1, 0.6, 7, i, 14, 0.68, 1, 1.7, -7
> CC1C(C#N)=C(N)OC2=C1C(=O)CC(c1ccccc1)C2 (stereo unspecified)
→ 1.4, 1.1, 17, i, 22, 0.69, 2, 4.6, -2
> Cc1c(C)c2c(c(C)c1O)CCC(C)(C(=O)O)O2 (stereo unspecified)
→ 0.0, x, x, i, x, 0.7, 1, 2.9, -17

Quoted at random: six records from the list, in no set order.
Below each SMILES: HNF4A DNA FP, Ecoli rRNA inh RFP, Ecoli rRNA inh OD600, FGF22 binding, Ecoli rRNA inh, E coli growth, B2AR ag, UCH37 DUB inh, ALR inh
> N#Cc1ccc(C(=O)N2CCC3CC2c2cc(N4CCCCC4)ccc23)cc1 (stereo unspecified)
→ -2.7, 2.6*, -18*, i, -33*, x, x, x, x
> COc1ccc(-c2csc3nc(-c4ccccc4F)oc(=O)c23)cc1
→ 1.7, -0.8, 14, i, 0, 0.67, -7, -6.8, 7
> Cc1c(C)c2c(c(C)c1O)CCC(C)(C(=O)O)O2 (stereo unspecified)
→ 0.0, x, x, i, x, 0.7, 1, 2.9, -17
> S=C1NC2(CCCC2)Nc2ccccc21
→ 1.6, -4.0, 8, i, 15, 0.67, -7, 0.7, 48
> O=C(CSc1nc2ccccc2c(=O)n1-c1ccccc1)N1CCc2ccccc21
→ -1.8, x, x, x, x, 0.68, 11, 1.0, -6
> Cn1c(COc2ccccc2)nnc1SCC(=O)NC1CCCC1
→ -0.7, -2.3, -3, i, 1, 0.72, -4, 1.8, -12

More structures follow.
Below each SMILES: HNF4A DNA FP, Ecoli rRNA inh RFP, Ecoli rRNA inh OD600, FGF22 binding, Ecoli rRNA inh, E coli growth, B2AR ag, UCH37 DUB inh, ALR inh
> COc1ccc(/C=C(\NC(=O)c2ccc(OC)c(OC)c2)C(=O)N2CCN(C)CC2)cc1
→ -1.8, 0.0, 11, i, 8, 0.67, -1, 1.6, -10
> COc1ccc(CN2CCNC(=O)C2CC(=O)NCCc2cnccn2)cc1C (stereo unspecified)
→ -3.7, 2.7, 12, i, 9, 0.69, -4, 1.2, x
> COc1ccc(/C=C/C(=O)NCCSCc2ccco2)cc1OC
→ -0.3, x, x, i, x, 0.62, -1, -6.3, x
> CCCCCCCCN1C(=O)[C@H](CC(=O)NCc2ccccc2)C[C@@]2(C(=O)OCC)CCC=C12
→ -5.6, 3.3, -8, i, -5, x, x, x, x
> CCC(C)NC(=O)C1(O)c2cc(Br)ccc2NC(=O)N1c1cccc(OC)c1 (stereo unspecified)
→ 2.8, 0.9, 2, i, 2, 0.68, -2, 0.6, -22
> Cc1ccc(C2(C)NC(=O)N(CC(=O)N3CCN(C(=O)c4cccs4)CC3)C2=O)cc1 (stereo unspecified)
→ -0.3, x, x, i, x, 0.67, 3, -2.1, x
> COC(=O)c1ccccc1NC(=O)CNC(=O)c1ccc(OC)cc1
→ -2.4, -6.4, -18, i, -14, 0.7, -1, 1.5, -3
> COc1cc(C(=O)NC(=S)Nc2ccccc2N2CCOCC2)cc(OC)c1OC
→ -1.6, 6.8, -21, i, -6, 0.74, 12, 5.6, 2
> Cc1c(Cl)cccc1NC(=O)c1ccco1
→ 3.1, 0.7, 10, i, 8, 0.61, -3, 4.0, x
> CCCCS(=O)(=O)NC(=O)C1(C)CCN1C(=O)C/C=C/c1ccccc1 (stereo unspecified)
→ -2.0, 0.5, 16, i, 7, x, x, x, x
> O=C(O)c1ccc2c(=O)n3cc(C(=O)c4ccccc4O)cc(Cl)c3nc2c1
→ -8.2, 3.2, -8, i, 5, 0.68, 16, 10, -16
> Cc1cccc(C(=O)NC(C(=O)Nc2cccc(S(=O)(=O)N3CCCC3)c2)C(C)C)c1 (stereo unspecified)
→ 5.2, 0.0, -26, i, -5, 0.7, 8, 1.6, -5
> Cc1c(Cc2ccccc2)c(=O)oc2c(O)c(O)ccc12
→ -6.9, -5.2, -26, x, -10, 0.61, 8, 2.9, x
> CCN(CC)CCn1c(=S)[nH]c2cc(C(=O)NCc3ccccc3Cl)ccc2c1=O
→ -3.3, 0.0, 0, i, 0, 0.64, 11, 0.9, 1
> CS(=O)(=O)N1CCN(c2ccccc2F)CC1
→ 0.9, x, x, x, x, 0.71, -2, 3.9, -1
> O=C(O)CCCC(=O)OCCCCc1cccs1
→ -1.6, x, x, x, x, 0.69, -4, 0.6, 0
> CCOc1ccc(NC(=O)C(C)O)c(NS(=O)(=O)c2ccc(CCNC(C)=O)cc2)c1 (stereo unspecified)
→ -1.8, -0.1, 3, i, 11, 0.65, -6, 4.0, 2
> COc1ccc(C2CC(c3ccccc3O)=NN2C(=O)c2ccccc2)cc1OC (stereo unspecified)
→ 4.9, 1.3, 1, i, 11, 0.7, -4, 0.2, 6
> COc1ccc(CN(C)C(=O)c2[nH]c(C)c(C(C)=O)c2C)c(OC)c1OC
→ 0.1, 0.7, 6, i, 7, 0.67, -4, -0.3, 4
> CCN(CCO)c1ccc(-n2c(N)c(C(=O)OC)c3nc4ccccc4nc32)cc1
→ 2.4, x, x, x, x, 0.74, -7, -7.1, -10
> Cc1cccc(OCC(=O)OC(C)CN2CCCCC2)c1 (stereo unspecified)
→ 0.1, -1.7, 3, i, 13, 0.67, -1, 4.3, -16
> Cc1ccc(Cn2c(C)nc3ccc([N+](=O)[O-])cc3c2=O)cc1
→ 4.8, -0.3, -4, i, -4, 0.71, 5, 1.0, -1
> Cc1cccc(OCC(=O)N2CCC(N3CCOCC3)CC2)c1
→ 2.8, x, x, x, x, 0.78, -1, 4.1, -8
> O=C1NCCN(CC2CCN(CC3CCCC3)CC2)C1=O
→ 2.8, -1.4, 14, i, 13, x, 10, x, x
> C=CCOc1cccn2c(N(C)C(=O)c3ccncc3)c(CC)nc12
→ 0.9, 6.0, -3, i, -4, x, x, x, x
> COc1ccc(S(=O)(=O)NC(C)C(=O)NCc2cccnc2)cc1C (stereo unspecified)
→ 1.2, 1.1, 12, i, 10, 0.6, -3, 1.5, -1
> COCCCNCCOCCOc1ccc(C)cc1Br
→ -0.1, x, x, x, x, 0.63, 3, -1.7, x
> O=C(c1cc(-c2ccc(Br)cc2)n[nH]1)N1CCN(C(=O)c2ccccc2Br)CC1
→ 0.6, -3.8, 5, i, 6, 0.69, 2, 0.6, 0
> Cc1ccccc1OCC(=O)N(Cc1cccc(F)c1)C1CCS(=O)(=O)C1 (stereo unspecified)
→ 1.1, -0.5, 7, i, 0, 0.68, -6, 1.4, -14
> Cc1ccc(/C=C/C(=O)Nc2ccncc2)o1
→ -1.4, x, x, x, x, 0.64, -1, -6.1, -16
> COc1ccc(-c2nnc(-c3ccc(OCC(C)C)cc3)o2)cc1
→ 0.5, x, x, x, x, 0.68, -2, -7.6, -4
> CN1C(=O)CCC1(O)c1ccccc1 (stereo unspecified)
→ -1.2, x, x, x, x, 0.68, 9, 1.1, -5
> CCOc1cc(N)c(Cl)cc1C(=O)NCC1CN(Cc2ccc(F)cc2)CCO1 (stereo unspecified)
→ -3.1, x, x, i, x, 0.064*, 4, 0.6, 2
> COC(=O)c1ccc(Cl)c(NC(C)=O)c1
→ -2.6, x, x, x, x, 0.68, -4, 0.9, -17
> CCCCNC(=O)Cn1nc(-c2ccc(C)cc2)ccc1=O
→ 3.4, 0.3, 4, x, 3, 0.68, -7, -7.2, -12
> CN(CC(=O)OCC(=O)c1c(N)n(C)c(=O)n(C)c1=O)S(=O)(=O)c1ccc(Cl)cc1
→ 2.9, -2.0, -5, i, -6, 0.69, -8, 0.9, -4
> COc1ccc(C(=O)N(CCc2ccccc2)Cc2cccs2)c(OC)c1
→ 1.3, -5.3, -48, i, -34, 0.64, -5, 3.3, 0
> Cc1cccc(CN2CCCC(C(=O)N3CCCCC3)C2)c1 (stereo unspecified)
→ 2.8, -1.0, 10, i, 6, 0.68, -13, 1.0, -16
> CCc1ccc(-c2cc(C)no2)cc1S(=O)(=O)N1CCN(c2ccccc2OC)CC1
→ 2.0, 0.9, 0, i, 7, 0.7, -7, 1.0, -1
> CC(C)c1ccc(O)c(NC(=S)NC(=O)CCc2ccccc2)c1
→ 2.4, -4.5, -38, i, -11, 0.69, 16, 2.6, 0
> Cc1ccc(CCc2nnc(SCC(=O)Nc3cc(Cl)ccc3Cl)n2-c2ccccc2)o1
→ -0.9, x, x, x, x, 0.7, 1, -1.3, x
> Cc1ccc(CC(=O)NC2CCN(C)CC2)cc1
→ -5.6, 1.0, 5, i, 3, 0.71, -1, -0.8, -16
> CCN1CCN(C(=O)C2CCN(S(=O)(=O)c3ccc(SC)cc3)CC2)CC1
→ -1.2, -0.2, 7, i, 6, 0.72, 15, 0.0, -5
> CN(C)Cc1ccccc1Sc1ccc(O)cc1O
→ 0.6, x, x, x, x, 0.65, -7, 2.4, 100*
> O=C(Nc1ccc(SC(F)F)cc1)c1ccccc1F
→ -0.2, -14, -20, i, -16, 0.68, 3, 5.2, 99*
> CCOC(=O)[C@H]1[C@H]2COc3ccc(Cl)cc3[C@@H]2N2C(=O)c3cc(Br)ccc3NC(=O)[C@@]12C
→ 1.0, -7.2, -4, i, 2, x, 0, 0.4, x
> COc1cccc(C(=O)N(C)c2nnc(-c3ccncc3)s2)c1
→ -0.1, x, x, x, x, 0.75, -2, -2.2, -15
> CCN1C(=O)/C(=C2\SC(=S)N(c3c(C)n(C)n(-c4ccccc4)c3=O)C2=O)c2ccccc21
→ -0.4, x, x, x, x, x, 14, x, -5
> COc1ccc(OC)c(S(=O)(=O)Nc2cc3c4c(c2)CCN4C(=O)CC3)c1
→ -1.2, 3.8, 13, i, 11, 0.7, -3, 5.4, 0
> CCOc1ccc(/C=N/OCC(=O)NCc2ccco2)cc1
→ 0.7, -0.1, -13, i, -16, x, 3, x, 31
> COc1cc(C(CCN2CCCCC2)c2c(OC)cc(OC)c3c(C)cc(=O)oc23)cc(OC)c1OC (stereo unspecified)
→ 2.7, 5.8, 7, i, -4, 0.69, -4, 1.2, -60
> O=C(NCc1cccc(F)c1)C1CCN(S(=O)(=O)Cc2ccccc2)CC1
→ 1.3, x, x, x, x, 0.65, 2, 1.9, -3
